Source: PubChem (National Center for Advancing Translational Sciences (NCATS))
VDR inh: blocks the human vitamin D receptor. P11473. VDR-SRC2-3 peptide fluorescence polarization, 2 h. Potency, µM, inactives show max response, negative = inhibition, hits mostly inhibitors. AID 504847. 0.93% of 400,000 active; active means well fitted inhibition curve with a large enough effect; inconclusive means small, poorly fitted or top-dose-only effect, or another doubt; inactive means no such curve, though single readings can be large or run the other way; further: series mostly up to about 120 µM
Target sequence (P11473 whole entry, looked up): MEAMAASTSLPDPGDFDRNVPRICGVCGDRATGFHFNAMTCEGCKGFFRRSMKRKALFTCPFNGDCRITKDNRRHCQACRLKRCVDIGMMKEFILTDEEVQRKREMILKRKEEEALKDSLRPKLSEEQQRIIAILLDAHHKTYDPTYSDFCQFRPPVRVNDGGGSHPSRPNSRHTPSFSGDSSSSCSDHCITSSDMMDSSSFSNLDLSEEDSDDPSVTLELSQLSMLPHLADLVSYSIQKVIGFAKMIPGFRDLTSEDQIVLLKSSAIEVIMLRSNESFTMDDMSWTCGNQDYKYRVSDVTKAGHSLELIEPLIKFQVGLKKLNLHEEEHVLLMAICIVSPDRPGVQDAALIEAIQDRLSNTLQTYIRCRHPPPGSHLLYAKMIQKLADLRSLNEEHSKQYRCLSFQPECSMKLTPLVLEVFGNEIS
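Two reagent solutions held at 4 deg C in the dark were dispensed, compounds pinned at 23 nl, and the mixture incubated 2 h at room temperature. Read-out: fluorescence polarization of VDR–SRC2-3 peptide binding.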
* marks the source's active call; other numbers are inactive results; ? = inconclusive; & = joins results of further samples. On the % scale 0 is the no-effect control and ±100 the full control effect; potency means the concentration at half of the fitted maximal effect.

VDR inh | SMILES
40µM* | CC1CCCC2(C1)NC(=S)c1c(sc3c1CCCC3)N2 (stereo not given)
-4% | O=C(NC(=S)Nc1cccnc1)c1cc2ccccc2o1
-4% | O=[N+]([O-])c1ccc2c3n([n+]([O-])c2c1)CCN=C3c1ccc(Cl)cc1
14% | O=C(/C=C\c1ccccc1)NC1CC(=O)N(c2ccccc2)C1 (stereo not given)
7% | CCOc1ccc(C(=O)NCc2cccnc2)cc1
2% | CCOC(=O)C1CN(S(=O)(=O)c2ccc(C)cc2)C1
-8% | CCCn1c(N)c(C(=O)CN2CCN(S(=O)(=O)c3cccs3)CC2)c(=O)[nH]c1=O
? | O=C(CCS(=O)(=O)c1nc(-c2ccc3c(c2)OCO3)cc(C(F)(F)F)n1)Nc1ccccc1C(F)(F)F
56µM* | Cc1ccc(Cn2c(C)nc3c(c2=O)c2nc4ccccc4nc2n3Cc2ccco2)cc1
3% | O=C(Nc1ccccc1[N+](=O)[O-])C1(c2ccccc2)CCOCC1
-7% | O=C(CCC1N=C2c3ccccc3N=C(SCc3cccc(Cl)c3)N2C1=O)NCCc1ccccc1 (stereo not given)
-11% | Cc1[nH]nc(SCC(=O)NCc2ccccc2)c1[N+](=O)[O-]
0% | O=C(CSc1nc(O)cc(=O)n1-c1ccccc1)NC1CCCCC1
-13% | CCOC(=O)N1CCN(Cc2nc3cc(NC(=O)CC(C)C)ccc3n2C)CC1
-16% | C[C@H](NC(=O)OCc1ccccc1)C(=O)NNC(=O)[C@H](Cc1ccccc1)NC(=O)OC(C)(C)C
14% | COC(=O)c1ccc2c(c1)N(Cc1ccccc1)C(=O)c1ccccc1S2(=O)=O
-3% | COC(=O)c1cc(C(=O)c2ccccc2)n2c(=O)/c(=C\N(C)C)sc12
-17% | CC(O)C(NS(=O)(=O)c1ccc2ccccc2c1)C(=O)OCC(=O)Nc1ccccc1OC(F)F (stereo not given)
-9% | Cn1c(NCCO)nc2c1c(=O)n(Cc1cccc(F)c1)c(=O)n2C
-2% | CCOc1cc(C)nc(NCCc2ccc(OC)c(OC)c2)n1
-4% | COc1ccc(/C(O)=C2/C(=O)C(=O)N(CCN3CCOCC3)C2c2ccc(C)cc2)cc1 (stereo not given)
? | Cc1ccc(C)c(S(=O)(=O)NCc2ccc(C(=O)N3CC(C)OC(C)C3)cc2)c1 (stereo not given)
-3% | COCCSc1ccccc1C(=O)Nc1ccc(Cl)cc1
-5% | CC1=N/C(=C\c2ccc([N+](=O)[O-])cc2)C(=O)N1c1ccc(F)cc1F
-16% | Cc1c(/C=C(\C#N)C(=O)Nc2cccc(Cl)c2)c2ccccc2n1Cc1ccccc1

Laid out differently: entries from further up.
O=C(/C=C\c1ccccc1)NC1CC(=O)N(c2ccccc2)C1 (stereo not given)
  VDR inh = 14%
CCOc1cc(C)nc(NCCc2ccc(OC)c(OC)c2)n1
  VDR inh = -2%

Five entries from above, in CSV form.
molecule,VDR inh
O=C(CCC1N=C2c3ccccc3N=C(SCc3cccc(Cl)c3)N2C1=O)NCCc1ccccc1 (stereo not given),-7%
Cc1[nH]nc(SCC(=O)NCc2ccccc2)c1[N+](=O)[O-],-11%
O=C(CSc1nc(O)cc(=O)n1-c1ccccc1)NC1CCCCC1,0%
CCOC(=O)N1CCN(Cc2nc3cc(NC(=O)CC(C)C)ccc3n2C)CC1,-13%
C[C@H](NC(=O)OCc1ccccc1)C(=O)NNC(=O)[C@H](Cc1ccccc1)NC(=O)OC(C)(C)C,-16%

(continued)
VDR inh | SMILES
-5% | COCCN1C=C2C(=O)C(C)(OC(=O)CCc3ccccc3)C(=O)C=C2C=C1c1ccc(C#N)cc1 (stereo not given)
-4% | CCOc1cc(Cl)c(S(=O)(=O)n2cc(C)nc2CC)cc1Cl
-10% | Cc1noc(C)c1NC(=O)N(C)C[C@H]1Oc2c(cccc2N(C)C)C(=O)N([C@H](C)CO)C[C@@H]1C
-12% | COc1ccc(NC(=O)C(Cc2ccccc2)NS(=O)(=O)c2ccc(Br)s2)cc1OC (stereo not given)
0% | CC(=O)Nc1ccc2c(c1)nc1n2CCSC1
-11% | CC(=O)N(CN1C(=O)CCC1=O)c1ccc(Cl)c(Cl)c1
-19% | CC(C)(C)OC(=O)N1CCCC(C(=O)Nc2cccc(C(=O)NC3CC3)c2)C1 (stereo not given)
8% | Cc1cccc(C(=O)N[C@H](C(=O)Nc2nc3ccc(S(C)(=O)=O)cc3s2)C(C)C)c1
-12%&-12% | COc1ccc(NC(=O)C2CCCN(S(=O)(=O)c3c(C)n[nH]c3C)C2)cc1OC (stereo not given)
16% | O=C(NNC(=O)C1C2C=CC(C2)C1C(=O)O)c1ccccc1O (stereo not given)
-6% | CC(C)c1ccc(C2(C)NC(=O)N(CC(=O)NC3(C#N)CCCC3)C2=O)cc1 (stereo not given)
? | COc1cccc(C(=O)Nc2ccc(F)c(F)c2F)c1
5% | CCOC(=O)c1ccccc1NC(=O)CSc1nc2ccccc2c(=O)[nH]1
11% | COc1cc(OC)cc(C(=O)NC2CCN(C(=O)N3c4ccccc4Sc4ccccc43)CC2)c1
11% | Cc1ccc(Cn2ncc3c(N4CCN(CC#N)CC4)ncnc32)cc1
1% | COC(=O)c1ccc(-n2c(/C=C\c3cccc(Br)c3)nc3ccccc3c2=O)cc1
7% | COc1ccc(OC)c(S(=O)(=O)NNC(=S)Nc2ccc3c(c2)OCO3)c1
? | COc1ccc(NC(=O)C(OC)c2ccccc2)cc1Cl (stereo not given)
-1% | Cc1ccc(C(=O)C2CCN(C(=S)NCCCOC(C)C)CC2)cc1
-15% | O=C(/C=C/c1ccc(O)cc1)c1ccccc1
11% | CC(O)CNc1ncnc2nc[nH]c12 (stereo not given)
0% | CC1(C)Cc2c(ccc3ccccc23)C(NNC(=O)c2cccnc2)=N1
12% | CC(C)CC(C(=O)NC1CCCC1)N(Cc1cccs1)C(=O)c1snc(C(N)=O)c1N (stereo not given)
-15% | CCCC(=Nc1ccc(N)cc1)C1=C(O)C(C(=O)OC)C(C)(C)CC1=O (stereo not given)
-6% | COc1ccc(-c2c(C(C)=O)c(C)nc3sc4c(=N)n(N)cnc4c23)cc1

Ordered by SMILES length (rising): part of the list above.
VDR inh | SMILES
? | COc1cccc(C(=O)Nc2ccc(F)c(F)c2F)c1
-4% | CCOc1cc(Cl)c(S(=O)(=O)n2cc(C)nc2CC)cc1Cl
-6% | CC(C)c1ccc(C2(C)NC(=O)N(CC(=O)NC3(C#N)CCCC3)C2=O)cc1 (stereo not given)

(listing goes on)
VDR inh | SMILES
? | CC[n+]1c(/C=C/N(C)c2ccccc2)oc2ccc(F)cc21
-11% | C=CC[N+](C)(C)CCCNC(=O)/C=N/O
-20% | CSc1cccc(NC(=S)N(CCN(C)C)C(C)c2ccncc2)c1 (stereo not given)
7% | O=C(CSc1nccc(=O)[nH]1)c1c[nH]c2ccccc12
-10% | Cc1ccc(-c2nc(C(=O)NCCCN3CCOCC3)cc3c2[nH]c2ccccc23)cc1
4% | O=[N+]([O-])c1ccc(-c2cnc(SCc3ccccc3Cl)[nH]2)cc1
4% | O=C(O)/C=C/c1cn(Cc2ccccc2)nc1-c1cccs1
12% | N#C/C(=C\c1ccc(O)cc1)C(=O)NCC1CCCO1 (stereo not given)
-6% | CCS(=O)(=O)N1CCN(c2cc3c(cc2[N+](=O)[O-])n(C)c(=O)n3C)CC1
-15% | COc1cc2c3c(c1OC)C1(C=CC(=O)C=C1)CC3N(C(C)=O)CC2 (stereo not given)
7% | CCOC(=O)c1nnn(-c2nonc2N)c1CN(CC)CC
-10% | CC1=CN2C(=NC(=O)CC2(C)C(=O)N(CC(=O)NC2CCCC2)Cc2ccc(Cl)cc2)C=C1 (stereo not given)
-5% | CCCCn1c(O)c(N=NC(=O)Cn2c(C(F)(F)F)nc3ccccc32)c2ccccc21
-14% | CCOc1cc(C(=O)OCC(=O)Nc2ccc(SC(F)F)cc2)cc(OCC)c1OCC
4% | COC(=O)c1sc(N)nc1C(C)(C)C
-12% | COc1cc(/C=N/Nc2cccc(C)c2)ccc1OC(=O)c1cccs1
7% | Cc1ccc(S(=O)(=O)NCCCNS(=O)(=O)c2ccccc2Br)cc1
-10% | NCCN1CCN(CC(=O)N2c3ccccc3C(=O)Nc3cccnc32)CC1
-20% | CC1CCCCC12NC(=O)N(CC(=O)NCCc1ccc(F)cc1)C2=O (stereo not given)
-5% | CCOC(=O)C1(C(F)(F)F)N=C(C(F)(F)F)Nc2ccc(F)cc21 (stereo not given)
-9% | O=C(Cn1ccc([N+](=O)[O-])n1)N1CCCCCC1
-27% | CC(C)CN1C(=O)c2ccc(C(=O)Nc3ccccn3)cc2C1=O
-13% | CC(=O)N1CCN(C(C)=O)c2ccccc21
2% | O=C(O)c1ccc(NS(=O)(=O)Cc2ccc(Cl)c(Cl)c2)cc1
-11% | CC(=O)N/N=C(\C)c1cccc(NC(=O)c2cccs2)c1
4% | COc1cc(C(=O)OCCCOC(=O)c2cc(OC)c(OC)c(OC)c2)cc(OC)c1OC
-6% | O=C(/C=C/c1cccc([N+](=O)[O-])c1)NCCN1CCOCC1
0% | Cc1ccc(OCC(=O)Nc2ccc(S(=O)(=O)N3CCOCC3)cc2)c([N+](=O)[O-])n1
-23% | CCC1=C(OC(=O)N(CC)CC)N2C(=O)OC(=NCC3CC3)[C@]2(C)[C@H]2C1=CC[C@H]1C(=O)N(CC)C(=O)[C@H]12
-3% | Cc1ccc(C(=O)O)c(NC=O)c1OCc1ccccc1
1% | CC1=C(C(N)=O)C(c2ccc(F)cc2)n2nc(-c3ccc(N(C)C)cc3)nc2N1 (stereo not given)
-9% | O=C(Nc1cc(F)c(Br)cc1F)c1ccc(Cl)cc1
2% | O=C(Nc1ccc(Br)cc1)c1cc(S(=O)(=O)N2CCc3ccccc32)ccc1F
-24% | CCOC(=O)C1=CN(Cc2ccco2)S(=O)(=O)NC1c1ccc(F)c(Cl)c1 (stereo not given)
-3% | CN(C)S(=O)(=O)c1ccc(N2CCCC2)c(C(=O)Nc2ccc(F)cc2F)c1
-16% | COc1cc2c(c(OC)c1OC)CCc1cnoc1-2
-10% | CCCCCc1ccc(C(=O)CCC(=O)OCC(=O)N(CC)c2c(N)n(Cc3ccccc3)c(=O)[nH]c2=O)cc1
5% | COc1ccc(Cl)cc1C(=O)OCC(=O)NC(=O)c1cccn1C
10% | Cc1ccc2c(CC(=O)N3CCN(S(=O)(=O)c4ccc5c(c4)OCCO5)CC3)coc2c1
-1% | CC(=O)N1CCOc2cc(S(=O)(=O)Nc3cccc(C(F)(F)F)c3)c(Cl)cc21
-14% | Cc1cccc(NC(=O)N2CCC(NC(=O)c3ccccc3C)CC2)c1
11% | CCC(=O)N1CCCc2cc(S(=O)(=O)N3CCN(C4CCCCC4)CC3)ccc21
4% | O=C(NN=C1CCCC1)c1n[nH]c2c1CCC2
-10% | COC(=O)c1ccc2ccn(CC(=O)NC3CCCCC3)c2c1
-2% | CN(C)S(=O)(=O)c1cccc(C(=O)OCC(=O)Nc2sccc2C(N)=O)c1
-1% | Cc1ccc(NC(=O)c2c(C(F)(F)F)nn(C)c2SCc2cccc(C(F)(F)F)c2)cc1C
-6% | Cc1nccn1-c1ccc(C(F)(F)F)cc1[N+](=O)[O-]
1% | c1ccc(-c2ncnc3nc4n(c23)CCC4)cc1
-8% | COc1cccc(CN(C)C(=O)c2ccc(S(=O)(=O)N3CCCC3)cc2)c1OC
4% | C/C(=N\Nc1cccc2cccnc12)c1ccc[nH]1

Continued:
VDR inh | SMILES
8% | Oc1cc(Cc2ccccc2)cnc1CN1CCCCC1
0% | O=C(NCCCCN1CCOCC1)c1cc2ccccc2o1
4% | CCOC(=O)c1ccc(NC(=O)CSc2ccc3ccccc3n2)cc1
-2% | CC(C)N1CCN(C(=O)C2CCC(=O)N(CCc3cccc(F)c3)C2)CC1 (stereo not given)
-4% | CCOc1ccccc1NC(=O)c1ccc(NC(=O)c2ccco2)cc1
-1% | O=C(Cc1cccc([N+](=O)[O-])c1)Nc1cccc(C(=O)N2CCCCC2)c1
0% | CCCCC#Cc1nc(NC)c2ncn([C@@H]3O[C@@H](CO)[C@H](O)[C@H]3O)c2n1
21% | CCOC(=O)c1cc(NC(=O)Nc2ccccc2Cl)c(C)nc1C
-12% | O=C(COC(=O)c1cccc(Cl)c1)Nc1ccc2[nH]c(=O)[nH]c2c1
? | COc1ccc(Nc2nc(-c3ccc(OC)cc3)c(CCC(=O)O)s2)cc1
-14% | COc1ccccc1NC(=O)c1ccc([N+](=O)[O-])o1
13% | O=C(Nc1ccc(Cl)c(Cl)c1)N1CC=C(c2ccccc2)CC1
-20% | Cc1cc(C)c(C#N)c(Nc2ccc(F)cc2)n1
-3% | CCOC(=O)c1cc(-c2ccccc2)sc1NC(=O)C(C)OC(=O)c1cccnc1Cl (stereo not given)
-21% | COc1ccc(CS(=O)(=O)c2nc(C)cc(C)c2S(C)(=O)=O)cc1
3% | COC(=O)[C@]1(Cc2ccccc2)N[C@H](c2ccc(-c3ccc4c(c3)OCO4)cc2)[C@@H]2C(=O)N(C)C(=O)[C@@H]21
7.1µM* | CC(=O)Nc1sc(N/N=C\c2cccc(Cl)c2)nc1-c1cccs1
-6% | COc1ccc2nc(C)c(C(N)=O)cc2c1
1% | CS(=O)(=O)Nc1cccc(-c2cncnc2NCc2cccnc2)c1
-18% | CC1(C)CC(=O)C(Sc2ccccc2C(=O)O)=C(O)C1
7% | CC(C)CCNC(=O)c1ccc2nc(CCc3ccccc3)oc2c1
-8% | CCOc1ccc(S(=O)(=O)NCc2ccc3c(c2)OCO3)cc1C(=O)O
-1% | O=C(O)c1cc2c(s1)-c1ccccc1OC2
-3% | COC(=O)C[C@H]1c2ccc(C(F)(F)F)cc2S(=O)(=O)N1Cc1ccccc1
4% | Cc1cc(=S)[nH]c2ccccc12

An excerpt; count on the stated rates, not on these rows.
